Assay outcomes (PubChem BioAssay)
Polio RdRp inh: poliovirus RNA polymerase inhibition | P03300 | poliovirus polymerase elongation, fluorescence polarization; active compounds read low | % elongation, % (compound at 16.7 µg/mL) | actives 0.66% (n = 150,000); in the data active = % elongation below about 90%; also: some results filed as inactive read as strong as hits
Target sequence (P03300 1749-2209 limits assumed): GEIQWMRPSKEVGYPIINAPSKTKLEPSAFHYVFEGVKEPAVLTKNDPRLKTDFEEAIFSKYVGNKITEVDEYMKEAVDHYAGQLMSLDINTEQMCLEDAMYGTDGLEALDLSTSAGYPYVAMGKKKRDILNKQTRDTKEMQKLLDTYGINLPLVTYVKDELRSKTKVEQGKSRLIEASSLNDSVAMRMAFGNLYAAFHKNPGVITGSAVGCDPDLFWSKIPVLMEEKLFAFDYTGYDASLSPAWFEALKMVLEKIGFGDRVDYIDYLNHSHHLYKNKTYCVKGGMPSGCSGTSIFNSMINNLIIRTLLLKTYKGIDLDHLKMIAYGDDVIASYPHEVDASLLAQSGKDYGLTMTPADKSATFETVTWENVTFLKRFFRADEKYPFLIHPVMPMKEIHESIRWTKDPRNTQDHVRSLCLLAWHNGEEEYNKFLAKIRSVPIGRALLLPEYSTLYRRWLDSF
Polio RdRp inh intensity: further read-out of Polio RdRp inh, marked with its call; % elongation; measured here: total intensity read-out; formula for this scale not given here;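 total fluorescence in place of polarization; lower means less elongation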
An asterisk follows results filed as active.

SMILES | Polio RdRp inh | Polio RdRp inh intensity
CCOc1ccc(CNC(=O)c2ccc3nc(Cc4ccc(OC)cc4)oc3c2)cc1OC | 107.0 | 114.0
CCN(c1ccccc1)c1nnc(NC(=O)Nc2ccc(Br)cc2F)s1 | 113.0 | 114.0
CCc1nn2c(=O)cc(COC(=O)c3cccc(NC(=O)c4ccccc4Cl)c3)nc2s1 | 106.0 | 109.0
COc1cn(CC(=O)Nc2cccc(C)c2C)c(CN2CCCCC2)cc1=O | 112.0 | 109.0
COc1ccc2c(c1)NC(c1cccnc1)=NC(c1ccc(F)cc1)=N2 | 110.0 | 108.0
Nc1nn(-c2ccccc2)nc1C(=O)OCc1ccccc1 | 106.0 | 109.0
CC(C)Cn1cc(NC(=O)Nc2cccc(C(F)(F)F)c2)c2ccccc2c1=O | 70.0* | 75.0*
COc1ccc(C2CC(=O)c3c([nH]c(C(=O)OC4CCCCCC4)c3C)C2)cc1 (stereo not given) | 107.0 | 112.0
Cc1ccc2[nH]c(CSc3nnc(NC(=O)c4ccccc4F)s3)cc(=O)c2c1 | 108.0 | 106.0
COc1ccc(Cl)cc1NS(=O)(=O)c1c(C)[nH]c(=O)[nH]c1=O | 109.0 | 111.0
Cn1c(=O)c2sccc2n2c(CCC(=O)NCc3ccccc3)nnc12 | 105.0 | 99.0
Cc1cccc(NC(=O)CCn2nc(C)c3c(C)n(-c4ccccc4)nc3c2=O)c1C | 107.0 | 112.0
COc1ccccc1CNC(=O)CCCn1c(=O)c2ccccc2n(Cc2ccc(F)cc2)c1=O | 101.0 | 98.0
CC(C)c1ccc(S(=O)(=O)c2nnn3c2nc(NCc2cccs2)c2sccc23)cc1 | 108.0 | 112.0
Cc1cc(C)c(NC(=O)Cn2c(=O)n(CC3CCCO3)c(=O)c3ccccc32)c(C)c1 (stereo not given) | 105.0 | 107.0
CCc1ccc(NC(=O)Cn2c(-c3cncs3)nc3ccccc32)cc1 | 109.0 | 116.0
CCOc1ccc(S(=O)(=O)NCCc2csc3nc(-c4ccc(F)cc4)nn23)cc1 | 110.0 | 111.0
Cc1cc(C)cc(NC(=O)CSc2nc3c(oc4ccccc43)c(=O)n2-c2ccccc2F)c1 | 102.0 | 105.0
CCCC12CN3CC(C)(CN(C1)C3c1cn(C)c3ccccc13)C2=O (stereo not given) | 102.0 | 93.0
COc1ccc(-c2nc(SCC(=O)NC3CCCC3)c(-c3ccccc3)[nH]2)cc1OC | 112.0 | 115.0
COC(=O)c1cccc(NC(=O)N(C)CCc2c(C)nn(C)c2C)c1 | 106.0 | 104.0
Cc1ccc(C(=O)Nc2ccc3nc(SCC(=O)N4CCc5ccccc54)sc3c2)cc1 | 109.0 | 111.0
Cc1nc2nc(NCc3ccc(Br)cc3)[nH]n2c(=O)c1Cc1ccccc1 | 120.0 | 119.0
COc1ccccc1NC(=O)CN1C(=O)CCSc2ccccc21 | 106.0 | 108.0
Cc1cccc(Cn2c(C)c(CNC3CCCCC3)c(C(=O)O)c2C)c1 | 108.0 | 109.0
CCC(=O)C1=C(c2ccccc2)N(C(=O)CC)n2c(nnc2-c2ccccc2)S1 | 107.0 | 112.0
COc1ccc(N2CCN(C(=O)CSc3nc(-c4ccc(C(C)C)cc4)no3)CC2)cc1 | 100.0 | 110.0
CCN(C(=O)C(=O)Nc1ccc2nc3n(c(=O)c2c1)CCCCC3)c1ccc(F)cc1 | 108.0 | 112.0
CC(=O)c1ccc(N2CCN(C(=O)C3CCN(S(=O)(=O)c4c(C)noc4/C=C/c4ccc(C)cc4)CC3)CC2)cc1 | 112.0 | 106.0
COc1ccc(N2CCN(C(=O)c3sc4nc5n(c(=O)c4c3C)CCC5)CC2)cc1 | 111.0 | 105.0
COc1ccc(-c2cc(C(F)F)n3ncc(C(=O)Nc4cc(OC)ccc4OC)c3n2)cc1 | 108.0 | 107.0
COc1ccc(Br)cc1CNC(=O)C1COc2ccccc2C1 (stereo not given) | 109.0 | 114.0
Cc1ccc(CN2CCC(CNC(=O)Nc3ccc(Cl)cc3)C2)cc1 (stereo not given) | 103.0 | 109.0
COc1ccccc1CNC(=O)c1cccc(NC(=O)N2CCSc3ncccc32)c1 | 106.0 | 100.0
CCOC(=O)N1CCC(NC(=O)c2c(C)nn(-c3cccc(C)c3)c2-n2cccc2)CC1 | 113.0 | 114.0
O=C(Nc1cccc(-c2nc3ccccc3o2)c1)c1cccc2c(Cl)cccc12 | 108.0 | 111.0
CCC(Sc1nc2nccnc2c(=O)n1Cc1ccc(C)cc1)C(=O)NC1CCCCC1 (stereo not given) | 107.0 | 110.0
COc1cccc(NC(=O)CC(C)S(=O)(=O)c2ccc3c(c2)NC(=O)CO3)c1 (stereo not given) | 103.0 | 96.0
CCc1cc2c(cc3c(=O)n(CC(=O)N4CCN(c5cccc(C)c5C)CC4)nc(CC)n32)s1 | 103.0 | 107.0
COC(=O)C1=C(c2ccccc2)c2ccccc2S(=O)(=O)N1CC(=O)Nc1ccccc1C(F)(F)F | 104.0 | 108.0
COc1ccc(NC(=O)C2Cc3ccccc3CN2S(=O)(=O)c2ccccc2)cc1OC (stereo not given) | 109.0 | 111.0
Cc1n[nH]c(C)c1S(=O)(=O)N(CC(=O)Nc1ccc(C(F)(F)F)cc1)c1ccc(C(C)C)cc1 | 106.0 | 113.0
COc1cccc(Cn2c(=O)n(-c3ccc(C)c(F)c3)c(=O)c3sc4ccccc4c32)c1 | 107.0 | 112.0
O=C(/C=C/c1ccco1)Nc1ccc(Cl)c(-c2nc3cc(Cl)ccc3o2)c1 | 106.0 | 113.0
O=S(=O)(NCc1nc2cccnc2n1Cc1ccccc1Cl)c1ccc2c(c1)CCCC2 | 108.0 | 111.0
Cc1ccc(C)c(C(=O)c2c(N)c(-c3nc(-c4ccc5c(c4)OCO5)cs3)c3ccccn23)c1 | 108.0 | 106.0
Cc1c(C(=O)Nc2ccccc2Br)oc2ccc(S(=O)(=O)N3CCOCC3)cc12 | 104.0 | 99.0
CCCCNC(=O)C(CC)Sc1nc2ccccc2c(=O)n1CCc1ccc(OC)c(OC)c1 (stereo not given) | 100.0 | 97.0
Cc1ccccc1-c1noc(-c2cccnc2NCc2ccco2)n1 | 110.0 | 115.0
Cn1c(Oc2ccc(F)cc2)nc2c1c(=O)n(Cc1ccccc1Cl)c(=O)n2C | 107.0 | 113.0
CCOc1ccc(N(CC(=O)NCc2ccc(OC)cc2)S(=O)(=O)c2c(C)[nH]c(=O)[nH]c2=O)cc1 | 103.0 | 103.0
Cc1ccc(C(=O)CC2(O)C(=O)N(CCc3ccccc3)c3ccc(Br)cc32)cc1 (stereo not given) | 105.0 | 109.0
CCc1ccc(CNCc2c(C(=O)O)n(Cc3ccc(C)cc3)c3cc(C)ccc23)cc1 | 102.0 | 108.0
CCOC(=O)c1cccc(NC(=O)c2cc(-c3ccc(Cl)s3)nc3ccccc23)c1 | 107.0 | 109.0
Brc1ccc2c(c1)NC(c1cccnc1)=NC(c1ccccc1)=N2 | 112.0 | 104.0
CCOC(=O)C(C)NC(=O)c1c(C)oc2ncn(CC(C)C)c(=O)c12 (stereo not given) | 107.0 | 115.0
CCCCn1c(CCCNC(=O)c2cccc(C)c2)nc2ccccc21 | 102.0 | 105.0
COc1cc(C(=O)Nc2ccc3nn(-c4ccc(F)cc4)nc3c2)cc(OC)c1OC | 105.0 | 104.0
Cc1ccc(-c2nnn3c2nc(N2CCC(C)CC2)c2ccccc23)cc1 | 100.0 | 104.0
CC(=O)c1cccc(NC(=O)c2ccc(-n3c(C)nnc3C)cc2)c1 | 101.0 | 109.0
The list continues:
SMILES | Polio RdRp inh | Polio RdRp inh intensity
COc1ccc(S(=O)(=O)n2nc(C)c(S(=O)(=O)N3CCC(C)CC3)c2C)cc1C | 110.0 | 103.0
COc1cccc(CNC(=O)C2CCN(C(=O)c3sccc3-n3cccc3)CC2)c1 | 111.0 | 110.0
COc1ccc(-c2nc(CN3CCC(C(=O)NCCCOC(C)C)CC3)c(C)o2)cc1OC | 106.0 | 108.0
CCOC(=O)c1c(C)oc2ncnc(Nc3ccc(OCC)cc3)c12 | 109.0 | 112.0
COc1ccccc1OCC(=O)Nc1nc2c(s1)CC(C)CC2 (stereo not given) | 97.0 | 100.0
COc1ccc(C2CC(=O)N(Cc3ccc(C)cc3)c3c2c(C)nn3-c2nc(C)cc(C)n2)c(OC)c1 (stereo not given) | 111.0 | 100.0
COc1ccc(Nc2nnc(-c3ccc(C)c(S(=O)(=O)NCCO)c3)c3ccccc23)cc1C(N)=O | 105.0 | 107.0
COc1ccc(OC)c(C2=NS(=O)(=O)N(C)C(C(=O)Nc3ccc(F)cc3F)=C2)c1 | 110.0 | 102.0
COc1ccc(S(=O)(=O)N(CC(=O)Nc2cc(Cl)ccc2C)Cc2ccccc2)cc1OC | 103.0 | 107.0
Cn1c(C(=O)N2CCCC(C(=O)N3CCN(c4ccccc4)CC3)C2)cc2sccc21 (stereo not given) | 104.0 | 105.0
COc1ccc(Br)cc1CNC(=O)c1cc2ccccn2n1 | 100.0 | 102.0
COc1ccc(NC(=O)C2CCN(S(=O)(=O)c3ccc4[nH]c(=O)ccc4c3)CC2)c(OC)c1 | 112.0 | 120.0
COc1ccc(NC(=O)Cn2c(=O)n(Cc3nc(C)no3)c(=O)c3cc4c(cc32)OCO4)cc1 | 109.0 | 115.0
COc1ccc(OC)c(NC(=O)C(Cc2ccccc2)NS(=O)(=O)c2ccc3c(c2)CCC(=O)N3)c1 (stereo not given) | 107.0 | 113.0
COc1ccc(CCNC(=O)CCCCCn2c(=O)[nH]c3cc(OC)c(OC)cc3c2=O)cc1OC | 108.0 | 108.0
CCCn1c(NCc2ccc(N(CC)CC)cc2)nc2ccccc21 | 101.0 | 101.0
Cc1ccc(Cn2c(SCC(=O)NCc3ccccc3Cl)nc3ccsc3c2=O)cc1 | 106.0 | 108.0
COc1ccccc1CNC(=O)c1oc2ccc(S(=O)(=O)N3CCCCC3)cc2c1C | 108.0 | 106.0
Cc1ccc(C)c(N(C)C(=O)Cc2c(C(=O)O)[nH]c3ccc(Cl)cc23)c1 | 103.0 | 103.0
O=C(NCC(c1cccs1)S(=O)(=O)c1cccs1)c1ccc(Cl)cc1 (stereo not given) | 106.0 | 102.0

Record cards (already shown).
Listed for `COc1cccc(CNC(=O)C2CCN(C(=O)c3sccc3-n3cccc3)CC2)c1` → Polio RdRp inh: 111.0; Polio RdRp inh intensity: 110.0
Listed for `COc1ccc(OC)c(C2=NS(=O)(=O)N(C)C(C(=O)Nc3ccc(F)cc3F)=C2)c1` → Polio RdRp inh: 110.0; Polio RdRp inh intensity: 102.0

Continuation:
SMILES | Polio RdRp inh | Polio RdRp inh intensity
Cc1ccc(-c2cn3cccnc3n2)cc1NC(=O)Cc1ccccc1 | 102.0 | 105.0
CCn1cc(C(=O)NC(C)c2ccccc2)c(=O)c2cc(S(=O)(=O)N3CCc4ccccc4C3)ccc21 (stereo not given) | 107.0 | 106.0
Cc1ccc(-n2ncc3c(N4CCN(CCO)CC4)ncnc32)cc1Cl | 96.0 | 104.0
CC(=O)N1CCc2c(sc3c2c(=O)n(Cc2ccccc2)c(=O)n3Cc2ccc(Cl)cc2)C1 | 104.0 | 110.0
COCCNc1ccc2cc(S(=O)(=O)N3CCCCC3)ccc2n1 | 104.0 | 100.0
CCN(c1ccccc1)S(=O)(=O)c1nnc(NC(=O)C2CCCCC2)s1 | 114.0 | 109.0
COc1ccccc1CC(=O)Nc1ccc2nc(Nc3cccc(C(F)(F)F)c3)cc(C)c2c1 | 110.0 | 106.0
Cc1ccn2c(Nc3ccc(C(C)C)cc3)c(-c3cccs3)nc2c1 | 108.0 | 106.0
CCn1c(CN2CCCCC2)nc2cc(NC(=O)c3cccc([N+](=O)[O-])c3)ccc21 | 105.0 | 108.0
Cc1ccc(OCC(=O)Nc2ccc3nc(SCCOc4ccccc4)sc3c2)cc1 | 98.0 | 106.0
COc1ccccc1N1CCN(c2ncc3c(n2)CCN(Cc2ccc(C)s2)C3)CC1 | 109.0 | 105.0
Cc1ccc(CNC(=O)C2CCCN(S(=O)(=O)c3ccc4c(c3)oc(=O)n4C)C2)cc1 (stereo not given) | 107.0 | 110.0
COc1ccccc1CNC(=O)CCCn1c(=O)c2ccccc2n(CC(=O)Nc2ccc(C)cc2Cl)c1=O | 103.0 | 102.0
CCCSc1ncc(Cl)c(C(=O)NCc2ccc(C)cc2)n1 | 102.0 | 103.0
COc1cccc(CNC(=O)Cn2c(=O)n3nc(-c4cccc(F)c4)nc3c3ccccc32)c1 | 104.0 | 102.0
O=C(Nc1ccc(Br)cc1)c1ccc(F)c(S(=O)(=O)N2CCCc3ccccc32)c1 | 112.0 | 107.0
CCOC(=O)c1cc(C)n(CC2CCC(C(=O)Nc3ccccc3OC)CC2)c1C (stereo not given) | 110.0 | 109.0
O=C(O)c1ccc2c(c1)ncn2-c1ccc(F)c(F)c1 | 102.0 | 106.0
COc1ccc(CCNC(=O)c2c(O)nc3c(C)cccn3c2=O)cc1 | 116.0 | 117.0
CCCCN(CC)CCCNC(=O)c1cc2c(=O)[nH]c3ccccc3c2n1C | 95.0 | 98.0
CCc1ccc(NC(=O)C2CCCN(c3nnc(C)c4c(C)n(-c5ccccc5)nc34)C2)cc1 (stereo not given) | 114.0 | 109.0
CCc1cccc(C)c1NC(=O)C1CCN(c2nnc(C)c3c(C)n(-c4ccccc4)nc23)CC1 | 105.0 | 100.0
Cc1cccc(-c2c3c(=O)n(C)c(=O)n(C)c3c3c(C)nc4ccccc4n23)c1 | 104.0 | 104.0
COc1ccc(C(=O)Nc2cc(NC(=O)c3ccco3)ccc2OC)cc1Cl | 104.0 | 106.0

Part of the list above, with two lines to a compound.
Every second line gives: Polio RdRp inh, Polio RdRp inh intensity
COc1ccc(CCNC(=O)CCCCCn2c(=O)[nH]c3cc(OC)c(OC)cc3c2=O)cc1OC
  108.0, 108.0
CCCn1c(NCc2ccc(N(CC)CC)cc2)nc2ccccc21
  101.0, 101.0
Cc1ccc(Cn2c(SCC(=O)NCc3ccccc3Cl)nc3ccsc3c2=O)cc1
  106.0, 108.0
COc1ccccc1CNC(=O)c1oc2ccc(S(=O)(=O)N3CCCCC3)cc2c1C
  108.0, 106.0
Cc1ccc(C)c(N(C)C(=O)Cc2c(C(=O)O)[nH]c3ccc(Cl)cc23)c1
  103.0, 103.0
O=C(NCC(c1cccs1)S(=O)(=O)c1cccs1)c1ccc(Cl)cc1 (stereo not given)
  106.0, 102.0

This is a subset; the hit share may differ from the screen's.
